CBX7 inh: inhibitors of human CBX7 binding to H3K27me3 peptide; AID 1224903; AlphaScreen His6-CBX7 / biotin-H3K27me3 peptide binding; stronger effect = lower value; 66,000 compounds, 1.1% hits; normalised signal (fraction of DMSO) (concentration not given with the values); in the data active = normalised signal below about 0.5;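 note: 100 nL library stock added to about 20 µL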
Target sequence (O95931 whole entry, looked up): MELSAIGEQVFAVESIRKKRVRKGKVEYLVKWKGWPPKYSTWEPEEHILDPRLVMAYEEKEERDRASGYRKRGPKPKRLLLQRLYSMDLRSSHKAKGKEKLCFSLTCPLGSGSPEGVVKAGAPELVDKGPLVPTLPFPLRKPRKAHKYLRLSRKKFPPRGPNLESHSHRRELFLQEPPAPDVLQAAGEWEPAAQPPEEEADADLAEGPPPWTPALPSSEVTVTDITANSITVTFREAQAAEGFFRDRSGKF
CBX7 inh z-score: further read-out of CBX7 inh, marked with its call; z-score; measured here: z-score of CBX7 signal; some inactives read as strong as hits; reference of the scale not given here;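 same signal on another scale; lower means less binding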
The depositor's hits bear a star; & = joins results of further samples. A portion of the library. The share of hits here may be higher or lower than overall.

Value order – CBX7 inh | CBX7 inh z-score
COc1ccccc1CNC(=O)C1CCCN(c2nn3c(=O)cc(C)nc3s2)C1 (stereo not drawn)
 : 1.06 | 0.565
CCc1ccc(C2CC(c3ccccc3F)n3nnnc3N2)cc1 (stereo not drawn)
 : 1.01 | 0.476
FC(F)(F)c1nc2ccccc2nc1N1CCN(c2ccccn2)CC1
 : 1.23 | 6.84
Cn1c(C(=O)N2CCCC(C(=O)NC3CCCC3)C2)cc2sccc21 (stereo not drawn)
 : 0.999 | -0.0239
CCOc1ccc(N2C(=O)C(C)C(Cc3ccc(C)cc3)C2=O)cc1 (stereo not drawn)
 : 1.32 | 2.36
CCN(C(=O)Cc1c(C(=O)O)[nH]c2ccccc12)c1ccccc1C
 : 0.979 | -0.469
Cc1nc2c(C(=O)NCc3ccccc3)cnn2c(C)c1Cc1ccc(F)cc1
 : 1.5 | 3.66
COc1ccc(-c2[nH]c(-c3ccc(F)cc3)nc2SCC(=O)Nc2nccs2)cc1
 : 0.923 | -0.325
Cc1ccc(NC(=O)CN(C)S(=O)(=O)c2ccc3c(c2)n(C)c(=O)c(=O)n3C)c(C)c1
 : 1.18 | 1.72
CCN(CC)CC(O)Cn1c2c(c3cc(C)ccc31)CCCC2=O (stereo not drawn)
 : 1.03 | 1.21
Cc1cccc(C2(c3cccc(C)c3)CC2C(=O)Nc2ccncc2)c1 (stereo not drawn)
 : 0.648 | -8.77
COc1ccc(Nc2nc3ccccc3nc2NS(=O)(=O)c2ccc(Cl)cc2)c(OC)c1
 : 0.894 | -2.09
CCOc1ccccc1NC(=O)CSc1nccn1-c1ccc(F)cc1
 : 0.768 | -1.82
COc1cc2c(C(=O)NC3CCCCC3)cn(CC(C)C)c(=O)c2cc1OC
 : 0.966 | -0.874
Cc1nn(-c2ccccn2)c2c1C1C(C2)C1(C)C (stereo not drawn)
 : 1.1 | 1.03
COc1ccccc1CC(=O)Nc1ccc2nc(N3CCN(c4ncccn4)CC3)cc(C)c2c1
 : 1.06 | 0.563
CCCOc1ccc(N2C(=O)CC(N3CCN(c4ccccn4)CC3)C2=O)cc1 (stereo not drawn)
 : 1.01&1.07 | 0.0942&0.862
COc1cccc(-c2nn(C)c3sc(C(=O)Nc4ccc5c(c4)OCO5)cc23)c1
 : 0.851 | -5.59
COc1ccc(C2=NOC(C(=O)N3CCN(c4ccccc4OC)CC3)C2)cc1 (stereo not drawn)
 : 1.05 | 0.671
COc1ccc(CCNc2nnc(-c3ccccc3)c(=O)[nH]2)cc1OC
 : 1.06 | 2.51
Cc1ccc(CNC(=O)c2cc(=O)nc3sc(-c4ccccc4)nn23)cc1
 : 1.05 | 0.537
CCOc1ccccc1NC(=O)c1c(NCc2ccccn2)sc2c1CCC(C)C2 (stereo not drawn)
 : 0.918 | -4.27
CCOC(=O)c1sc2nc(C)nc(Nc3ccc(OC)c(OC)c3)c2c1C
 : 1.02 | 0.751
COc1ccc(NC(=O)CSc2ncc(-c3ccc(Cl)cc3)[nH]2)cc1OC
 : 1.2 | 0.451
COc1ccc(NC(=O)c2c(NC(=O)c3ccccc3)sc3c2CCC3)cc1
 : 0.992 | -0.168
CCCCCCOc1ccccc1C(=O)NCCOc1ccc(Cl)cc1
 : 0.939 | -1.29
COCCNS(=O)(=O)c1ccc2c(c1)CCN2C(=O)C1CC1
 : 0.998 | -0.0625
COc1ccc(Nc2nc(-c3cccc(C)c3)nc3ccccc23)cc1Cl
 : 1.32 | 7.34
O=S(=O)(c1ccc(-c2csc(Nc3ccc(Br)cc3)n2)cc1)N1CCOCC1
 : 1.03 | 1.28
CCc1c(-c2ccccc2)nc2ccccc2c1C(=O)NCc1ccc(OC)cc1
 : 1.11 | 1.49
CC1CCN(C(=O)C2CCCN(c3nnc(-n4cccc4)s3)C2)CC1 (stereo not drawn)
 : 1.03 | 0.657
CCOC(=O)C1CCN(c2c(NCCc3cccc(C)c3)c(=O)c2=O)CC1
 : 1.1 | 1.51
Cc1csc2ncc(C(=O)NCc3ccc(Cl)cc3)c(=O)n12
 : 1.08 | 0.908
COc1ccccc1CNC(=O)C1CCN(S(=O)(=O)c2c(C)noc2/C=C/c2cccs2)CC1
 : 1.01 | 0.235
O=C1CC(c2ccc(S(=O)(=O)NCc3ccncc3)cc2)CN1 (stereo not drawn)
 : 0.974 | -0.424
Cc1ccc(NC(=O)c2ccc(C#N)cc2)c(C(=O)c2ccccc2)c1
 : 1.03 | 0.178
CCCn1cnc2cc(NCc3ccccc3Cl)ccc21
 : 0.845 | -3.9
Cc1csc2ncc(C(=O)NC(C)c3ccccc3)c(=O)n12 (stereo not drawn)
 : 0.902 | -1.16
C=CCn1c(SCC(=O)Nc2ccc(S(N)(=O)=O)cc2)nnc1-c1cccnc1
 : 1.1 | 0.997
CCCNC(=O)CCn1nc(-c2ccccc2)c2ccccc2c1=O
 : 0.945 | -1.54
CCc1ccc(NC(=O)c2cnc3scc(C)n3c2=O)cc1
 : 1.06 | 2.21
CCN(C(=O)Cc1nc(N)n[nH]1)C1(C(=O)Nc2ccccc2)CCCCC1
 : 0.201* | -14.5*
CC(C)CCNC(=O)CSc1nc(NC2CCCCC2)c2ccccc2n1
 : 1.02 | 0.812
CC(=O)Nc1ccc(S(=O)(=O)NCc2ccc(C(=O)NCCc3ccc(Cl)cc3)cc2)cc1
 : 1.2 | 2.55
COc1ccc(NC(=O)CN2C(=O)CC(c3ccc(OC)cc3)Sc3ccccc32)cc1 (stereo not drawn)
 : 0.977 | -0.392
O=C(Nc1ccc(Cl)c(-c2nc3ccccc3s2)c1)c1cncc(Br)c1
 : 0.825 | -2.08
Cc1ccc(CNC(=O)c2ccc3c(c2)N(Cc2ccccc2)C(=O)c2ccccc2S3)cc1
 : 0.858 | -1.41
CN(C)c1oc(-c2ccc(F)cc2)nc1S(=O)(=O)c1ccccc1
 : 1.02 | 0.494
Cc1nc2ccc(S(=O)(=O)N(C)CC(=O)N3CCN(c4ccccc4)CC3)cc2s1
 : 1.21 | 1.25
Cc1cc2cc(CCNC(=O)c3cccc(C(F)(F)F)c3)c(=O)[nH]c2cc1C
 : 1.09 | 0.616
Fc1ccc(-c2cn3nc(-c4ccccc4)n4c3c2CCCC4)cc1
 : 0.814 | -9.65
Brc1cccc(CNc2nc3ccccc3n2CCN2CCOCC2)c1
 : 1.03 | 1.29
CCOc1ccc(NC(=O)C(CCS(C)(=O)=O)NC(C)=O)cc1 (stereo not drawn)
 : 1.17 | 1.13
Cc1ccc(NC(=O)CC2Sc3ccccc3NC2=O)c(C)c1 (stereo not drawn)
 : 1.02 | 0.9
Cc1cccc(NC(=O)c2sc3ncn(Cc4ccccc4F)c(=O)c3c2C)c1
 : 1.02 | 0.169
CC(=O)Oc1ccc(N2C(=O)CC(N3CCN(Cc4ccccc4)CC3)C2=O)cc1 (stereo not drawn)
 : 1.04 | 1.59
Cc1ccc2c(c1)-c1c(cnn1CC(=O)N(C)c1cccc(C(F)(F)F)c1)CO2
 : 0.982 | -0.469
CCOc1ccc(CCNC(=O)C2CCN(c3nnc(-n4cccc4)s3)CC2)cc1
 : 1.1 | 1.05
COCCNC(=O)c1c[nH]c2ccc(S(=O)(=O)N(C)c3ccc(C(C)C)cc3)cc2c1=O
 : 0.94 | -0.824
O=C(NC1CC1)c1ccc2c(c1)N(Cc1ccccc1)CCS2
 : 0.872 | -0.17

Next records.
Value order – CBX7 inh | CBX7 inh z-score
O=C(CCc1nc(-c2cccs2)no1)Nc1ccc(F)cc1
 : 0.916 | -0.0833
CC(=O)Nc1ccc(-c2nc3c(Br)cc(NC(C)=O)cc3[nH]2)cc1
 : 0.982 | -0.402
CCOc1ccccc1NC(=O)c1cccc2c1C(=O)N(CCOC)C2
 : 1.04 | 0.692
CCN(CC)c1ccc2cc(-c3nnc(-c4cccs4)o3)c(=O)oc2c1
 : 0.855 | -1.57
CCOCCCNC(=O)c1c[nH]c2ccc(S(=O)(=O)N(C)c3ccc(C(C)C)cc3)cc2c1=O
 : 1.05 | 0.723
Cc1nn(CCCC(=O)NCC2CCCO2)c2ccc(F)cc12 (stereo not drawn)
 : 1.02 | 0.565
COc1cccc(NC(=O)c2sc3nc(-c4ccc(F)cc4)cn3c2C)c1
 : 0.947 | -1.01
CC1CCC(NC(=O)C2c3cccn3CC(=O)N2c2cccc(F)c2)CC1 (stereo not drawn)
 : 1.06 | 1.08
CCC1=Nc2cc(C(=O)NC3CCCC3)ccc2Sc2ccc(Cl)cc21
 : 0.961 | -0.792
CCC(=O)Nc1cccc(-c2cn3c(C)cccc3n2)c1
 : 0.914 | -3.08
CCN(CC)C(=O)CC1Oc2ccccc2NC1=O (stereo not drawn)
 : 1.11 | 0.618
CC(=O)N1c2ccccc2NC2=C(C(=O)CCC2)C1c1ccc(C)cc1 (stereo not drawn)
 : 1.1 | 1.12
O=C(O)c1ccc(NCc2nc3ccccc3n2Cc2ccccc2F)cc1
 : 1.04 | 1.33
Cc1cc(=O)n2nc(N3CCC(C(=O)NCCN(C)C4CCCCC4)CC3)sc2n1
 : 1.24 | 2.28
CN(c1ccc(Cl)cc1)S(=O)(=O)c1ccc2[nH]cc(C(=O)N3CCCCCC3)c(=O)c2c1
 : 1.19 | 1.78
Cc1ccc(OCC(O)CN2CC(C)CC(C)C2)c(C)c1 (stereo not drawn)
 : 0.941 | -0.92
O=C(Cn1nc(Cc2ccncc2)c2ccccc2c1=O)N1CC=C(c2ccccc2)CC1
 : 0.96 | -0.418
CCC1Oc2ccccc2N(CC(=O)NCCN(CC)CC)C1=O (stereo not drawn)
 : 0.989 | -0.332
Cn1c(CNc2ccccc2O)nc2ccccc21
 : 0.461* | -22.2*
O=S(=O)(c1ccccc1)c1nc(-c2ccc(Cl)cc2)oc1NCc1ccco1
 : 0.748 | -1.09

Molecules listed so far containing a COOH group (two):
Value order – CBX7 inh | CBX7 inh z-score
CCN(C(=O)Cc1c(C(=O)O)[nH]c2ccccc12)c1ccccc1C
 : 0.979 | -0.469
O=C(O)c1ccc(NCc2nc3ccccc3n2Cc2ccccc2F)cc1
 : 1.04 | 1.33

(further entries)
Value order – CBX7 inh | CBX7 inh z-score
CCOc1cccc(C(=O)Nc2nnc(-c3ccccc3C)s2)c1
 : 1.04 | 0.47
CCOC(=O)C1CCN(S(=O)(=O)c2cnc[nH]2)CC1
 : 1.15 | 2.33
CCOc1ccc(CN2C(=O)c3ccccc3Sc3ccc(C(=O)OC)cc32)cc1
 : 0.944 | -0.65
O=C(NCCc1ccccc1)C1=CCN(S(=O)(=O)c2ccc(F)cc2)CC1
 : 1.05 | 2.55
COc1ccc2c(c1)CCc1c(C(=O)Nc3cccc(Cl)c3)noc1-2
 : 1.25 | 2.02
COc1cc2[nH]c(=O)n(CCC(=O)N3CCN(c4ccccn4)CC3)c(=O)c2cc1OC
 : 0.985 | -0.464
CCS(=O)(=O)N1CCC(C(=O)NCc2cc(Br)ccc2OC)CC1
 : 1.06 | 0.88
COc1ccccc1N1CCN(c2nc(C)nc3sc4c(c23)CCCC4)CC1
 : 0.731 | -7.28
Cc1sc2ncn(CC(=O)Nc3cccc(C(F)(F)F)c3)c(=O)c2c1C
 : 1.06 | 1.67
CCOc1ccccc1N1C(=O)C2C3C=CC(C3=C(C)C)C2C1=O (stereo not drawn)
 : 0.837 | -2.58
O=c1[nH]c2ccc(NCc3ccccc3OCc3ccccc3F)cc2[nH]1
 : 0.663 | -6.26
COc1ccc2cc(C#N)c(Nc3cc(C)c(Cl)cc3OC)nc2c1
 : 1.17 | 3.74
CCCCOc1ccc(C(=O)Nc2nc3c(s2)C(=O)CC(C)(C)C3)cc1
 : 0.996 | -0.102
CCC(C)NC(=O)c1csc2c1CCCCC2 (stereo not drawn)
 : 1.07 | 2.73
CC(=O)NC(C)C(c1cccs1)N1CCN(c2ccccc2)CC1 (stereo not drawn)
 : 0.979 | -0.218
Cc1cc(N2CCCCC2)nc2ccc(NC(=O)C3CCCO3)cc12 (stereo not drawn)
 : 1.02 | 0.242
O=C(NCCc1ccccc1)C1c2ccccc2C(=O)N1Cc1ccc2c(c1)OCO2 (stereo not drawn)
 : 0.85 | -0.531
Cc1cccc(C)c1NC(=O)c1c(-c2ccccc2Cl)noc1C
 : 1.01 | 0.32
CCCCNC(=O)c1ccc(NC2=NC3CS(=O)(=O)CC3S2)cc1 (stereo not drawn)
 : 1.24 | 1.8
COc1ccc(NCc2nc3ccccc3n2CCOc2ccccc2)cc1
 : 0.719 | -10.3

5 compounds already listed, arranged by their value in CBX7 inh z-score, highest first.
| Molecule | CBX7 inh z-score |
| --- | --- |
| COc1ccc2cc(C#N)c(Nc3cc(C)c(Cl)cc3OC)nc2c1 | 3.74 |
| CCCCNC(=O)c1ccc(NC2=NC3CS(=O)(=O)CC3S2)cc1 (stereo not drawn) | 1.8 |
| Cc1cccc(C)c1NC(=O)c1c(-c2ccccc2Cl)noc1C | 0.32 |
| CC(=O)NC(C)C(c1cccs1)N1CCN(c2ccccc2)CC1 (stereo not drawn) | -0.218 |
| O=c1[nH]c2ccc(NCc3ccccc3OCc3ccccc3F)cc2[nH]1 | -6.26 |

Additional entries follow.
Value order – CBX7 inh | CBX7 inh z-score
CCOC(=O)c1cc(-c2ccccc2)n(CCC(=O)Nc2ccc(OC)cc2OC)c1C
 : 0.876 | -1.33
O=C(CCC1CCCCC1)Nc1nnc(Cc2ccc(Cl)cc2)s1
 : 0.79 | -2.48
Cc1cccc(NC(=O)Nc2ccc3snnc3c2)c1C
 : 1 | 0.138
Cc1ccc(NC(=O)CSc2nccn2C)cc1C
 : 1.11 | 1.24
CCn1c(C(=O)N2CCC(C(=O)NC(=O)C3CCNCC3)CC2)cc2sccc21
 : 1.05 | 0.224
Cc1ccccc1Nc1c(-c2cccs2)nc2ccccn12
 : 1.21 | 2.1
Cc1cc(N2CCCCC2)nc2ccc(NC(=O)c3ccc(F)cc3)cc12
 : 1.03 | 0.764
O=C(NCCCN1CCOCC1)c1csc2c1CCCCC2
 : 0.761 | -0.944
CC(=O)Nc1c(-c2ccc(F)cc2)nc2ccccn12
 : 0.947 | -1.23
O=C(O)c1ccc(OCC(O)Cn2cnc3ccccc32)cc1 (stereo not drawn)
 : 1.02 | 0.157
CCOc1ccc(NC(=O)c2cc3c(C)nn(-c4ccccc4)c3s2)cc1
 : 1.01 | 0.071
Cc1ccc(Cl)cc1N1CCN(C(=O)CN2C(=O)COc3ccc(C(C)(C)C)cc32)CC1
 : 0.862 | -4.13
CCN(CCNC(=O)CCN1N=C(c2ccccc2)CCC1=O)c1ccccc1
 : 0.769 | -4.18
